# Mtb bLac sens: beta-lactam sensitization of Mtb H37Rv; 330,000 tested, 0.27% active; AID 434955; inhibition, % at 25 µM; M. tuberculosis H37Rv growth with meropenem, percent inhibition; hits of this screen are not shown here;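 active = about 74% or more and at least 40 points above the plate without the antibiotic, then above 30% in a dose series; inconclusive = first-round hits that could not be retested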;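 also: growth measured after seven days incubation then overnight dye step; 0% = bacteria only wells and 100% = bacteria with antibiotic; twin plates without the antibiotic show which effects depend on it; some results filed as inactive read as strong as hits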
# Mtb H37Rv: M. tuberculosis H37Rv growth inhibitors, H37Rv strain (AID 1626). M. tuberculosis H37Rv growth inhibition; higher % means a stronger effect. one-dose inhibition, % at 10 µM; IC50 in µM for titrated hits. 220,000 tested, 0.95% active;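 active = confirmed in a dose series; inconclusive = inhibition above 80% but not taken into the dose series; inactive = below 80% or under 30% at every dose of the series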;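 also: bacteria incubated seven days before Alamar blue readout; 0% = bacteria only wells and 100% = bacteria with antibiotic wells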
# RecA splice inh: Mtb RecA intein splicing inhibition; cell-free RecA intein splicing, fluorescence; inhibition, %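 (about 9 µM by stock and volumes)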; 290,000 tested, 0.75% active; AID 2221; in the data active = inhibition above about 30%; inconclusive = no clear call, values can overlap the other calls;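 also: 0% = vehicle wells and 100% = reference inhibitor control wells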
# Target sequence (P9WHJ3 whole entry, looked up, canonical isoform): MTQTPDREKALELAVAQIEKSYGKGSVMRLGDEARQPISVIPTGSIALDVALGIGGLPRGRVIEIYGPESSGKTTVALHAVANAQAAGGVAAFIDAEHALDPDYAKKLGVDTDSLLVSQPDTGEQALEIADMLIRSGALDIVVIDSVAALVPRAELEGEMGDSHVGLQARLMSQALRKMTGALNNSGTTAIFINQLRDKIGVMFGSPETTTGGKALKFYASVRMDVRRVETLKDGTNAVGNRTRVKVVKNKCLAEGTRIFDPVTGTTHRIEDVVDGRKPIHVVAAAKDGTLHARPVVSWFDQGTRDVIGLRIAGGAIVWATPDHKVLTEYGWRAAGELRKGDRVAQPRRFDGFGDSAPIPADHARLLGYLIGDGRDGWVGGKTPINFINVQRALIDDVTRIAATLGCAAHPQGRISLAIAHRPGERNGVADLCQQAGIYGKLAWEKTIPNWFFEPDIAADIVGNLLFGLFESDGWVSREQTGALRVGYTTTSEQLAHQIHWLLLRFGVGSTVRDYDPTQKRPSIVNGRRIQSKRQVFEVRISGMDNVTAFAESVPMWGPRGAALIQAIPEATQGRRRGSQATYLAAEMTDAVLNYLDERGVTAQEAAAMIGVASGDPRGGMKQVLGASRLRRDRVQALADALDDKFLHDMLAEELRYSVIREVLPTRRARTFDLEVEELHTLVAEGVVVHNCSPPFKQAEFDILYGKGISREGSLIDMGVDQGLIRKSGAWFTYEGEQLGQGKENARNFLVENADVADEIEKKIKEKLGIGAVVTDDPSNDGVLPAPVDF
# YopH inh: inhibitors of Yersinia enterocolitica YopH tyrosine phosphatase | AID 898 | fluorescence Ex485/Em525 | inhibition, %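 (about 10 µM by stock and volumes)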 | 140,000 tested, 0.16% active;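 active = inhibition of 50% or more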;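 also: controls were vehicle for no effect and minimum signal wells for full effect; inactives centre near -20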
# Arbovirus inh: antivirals against arbovirus infection; arbovirus infection cell-based antiviral screen; inhibition, % at 10 µM; 200,000 tested, 0.37% active; AID 1251;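 active = inhibition from about 30%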;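 also: bluetongue infection of BSR cells; cell survival read as ATP light after 72 h; 0% = infected wells without compound and 100% = uninfected wells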
# Arbovirus inh repeat: recorded beside Arbovirus inh, whose call it bears; inhibition, %; measured here: 10K subset replicate screen; many hits read low in the repeat;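 first of two repeat runs on a subset; 0% = infected and 100% = uninfected wells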
# * hit, by the source's call; ? = inconclusive; . = not tested or not shown.
SMILES,Mtb bLac sens,Mtb H37Rv,RecA splice inh,YopH inh,Arbovirus inh,others
O=C(N/N=C/c1cccs1)c1cccc2cc[nH]c12,95,0%,.,-10,-13,
CCCCCC(=O)NNC(=O)Nc1ccccc1,-5,-2%,-0.8,-9,-3,
CC(NC(=O)CSc1n[nH]c(=O)n1C1CC1)C12CC3CC(CC(C3)C1)C2 (stereo not drawn),0,-8%,1.4,6,1,
COc1ccc2nc(NNC(=O)COc3ccccc3)sc2c1,-1,?,-6.3,.,-8,
CCCCn1ccnc1C(=O)c1ccc(S(=O)(=O)N2CCCC2)cc1,4,-8%,-0.3,.,.,
Cn1cc(S(=O)(=O)N2CCCC(C(=O)O)C2)cn1 (stereo not drawn),2,4%,4.5,.,7,
C=CCNC(=O)Nc1ccc2nc(C)sc2c1,8,3%,-0.3,.,-1,
O=C1/C(=C\c2cc([N+](=O)[O-])ccc2O)SC(=S)N1Cc1ccc(Cl)cc1,24,.,52*,.,.,
O=c1[nH]c2ccc(NC(=S)Nc3ccc(F)cc3)cc2[nH]1,2,-3%,-2.0,.,.,
O=C(COC(=O)c1cc(S(=O)(=O)NCc2ccccc2)ccc1O)c1cc2ccccc2o1,0,?,0.4,.,.,
COCC(=O)Nc1cc(Cl)ccc1C,-9,3%,0.3,.,13,
COc1cc(C=C2C(=O)OC(C)(C)OC2=O)ccc1OCC(=O)Nc1ccccc1,6,-1%,0.0,.,4,
COc1ccc2oc(=O)c(C(=O)NCc3ccccn3)cc2c1,22,-5%,-120,-20,-3,
COc1ccc2nc(SCC(=O)/C(C#N)=C(\C)N)[nH]c2c1,-10,-2%,-0.2,-13,8,
NC(=O)c1nsc(C(=O)N(CC(=O)NCc2ccccc2)c2ccc(F)cc2)c1N,-1,.,0.7,.,.,
O=C(Nc1ccc(Cl)cc1)c1ccc(Br)cc1F,74,-3%,6.1,.,2,
CS(=O)(=O)N(CC(=O)NCC1CCCO1)Cc1ccc(Cl)cc1 (stereo not drawn),-3,3%,-1.7,-11,5,
CN(C)CCOC(c1ccc(Cl)cc1)c1ccccn1 (stereo not drawn),-10,-6%,3.0,.,1,
Cc1ccc(C)c(N(CC(=O)NCCSCc2ccco2)S(C)(=O)=O)c1,-14,-6%,1.6,-42,1,
O=C(CCCOc1ccccc1)Nc1nncs1,2,-4%,0.3,-20,10,
CCN(CC)CCCNC(=O)Cn1nc(-c2ccccc2)ccc1=O,0,3%,-1.4,-48,5,
O/N=C/c1cn(-c2ccc(Cl)cc2)nn1,1,?,0.7,.,-9,
CN(C)S(=O)(=O)N1CCC(CO)(Cc2cccc(C(F)(F)F)c2)CC1,0,-9%,0.2,.,-6,
CS(=O)(=O)N(CC(=O)Nc1ccccc1C(=O)NCc1ccccc1)c1ccc2c(c1)OCCO2,-1,0%,-0.1,-27,6,
COC(=O)c1cccc(NC(=O)c2cc3ccccc3o2)c1,39,.,3.4,.,.,
CC(C)(Cc1ccccc1)NC(=O)C(=O)c1cn(CC(=O)N2CCOCC2)c2ccccc12,?,.,-6.7,.,.,
COc1cc(C=O)ccc1OCC(=O)N1CCOCC1,-2,-6%,-0.6,-10,4,
COc1ccc(-c2[nH]ncc2/C=N\NS(=O)(=O)c2ccc(Cl)cc2)cc1,5,-1%,-1.0,-18,6,
Cc1c(N(C)C(=O)c2ccccc2F)c(=O)n(-c2ccccc2)n1C,9,0%,-1.8,-10,-4,
Fc1ccc(C2=CCN(C(c3ccc(Cl)cc3)c3nnnn3Cc3ccccc3)CC2)cc1 (stereo not drawn),3,14%,.,-30,11,
O=C(CCn1nc(-c2ccccc2)c2ccccc2c1=O)Nc1cccnc1,2,-8%,-3.6,.,-1,
CCOc1ccc(N(C(=O)CNC(=O)c2ccco2)C(C(=O)NC2CCCC2)c2ccco2)cc1 (stereo not drawn),0,.,2.0,.,.,
CCCOc1ccc(NC(=O)c2cc3cc(C)ccc3[nH]2)cc1,0,.,-0.8,.,.,
Cc1ccccc1NC(=O)Cc1nc(COC(=O)CCOc2ccccc2)cs1,-11,.,-0.1,.,.,
O=C(N=C1SC2CS(=O)(=O)CC2N1Cc1ccc(F)cc1)C1CCCO1 (stereo not drawn),-3,.,0.6,.,.,
O=C(O)[C@H]1CCCC[C@H]1C(=O)Nc1cc([N+](=O)[O-])ccc1F,7,0%,0.0,-27,-10,
CCOC(=O)Cc1ccc(NS(=O)(=O)c2ccc(SC)cc2)cc1,-1,15%,3.1,3,3,Arbovirus inh repeat=17
O=C(CNS(=O)(=O)c1ccccc1)NCC(=O)OCc1ccc(Cl)cc1,0,7%,0.7,.,.,
COc1ccc(CN2CCN(Cc3ccccc3OC)CC2)cc1,0,.,1.6,.,.,
CC(C)C(=O)NC(NC(=S)Nc1ccc(S(N)(=O)=O)cc1)C(Cl)(Cl)Cl (stereo not drawn),5,-7%,-0.8,-7,2,
CC(C(=O)N1CCN=C1c1ccccc1)N1C(=O)c2ccccc2C1=O (stereo not drawn),-6,-9%,.,.,.,
O=c1cc(/N=C/c2coc3cc(Br)ccc3c2=O)[nH]c(=S)[nH]1,-7,0%,-0.5,.,.,
COc1ccc(CN(C(=O)CN2C(=O)C(C)Oc3ccccc32)C2CCCC2)c(OC)c1 (stereo not drawn),.,7%,12,-23,-19,
COC(=O)Cc1ccc(NC(=S)N2CCN(c3cccc(O)c3)CC2)cc1,-4,8%,-6.7,-39,4,
Nc1nc(N2CCN(C(=O)c3ccco3)CC2)nc2ccccc12,-5,-12%,-2.4,-3,-2,

# Structures from the list above containing a nitro group on carbon, in the order listed:
SMILES,Mtb bLac sens,Mtb H37Rv,RecA splice inh,YopH inh,Arbovirus inh,others
O=C1/C(=C\c2cc([N+](=O)[O-])ccc2O)SC(=S)N1Cc1ccc(Cl)cc1,24,.,52*,.,.,
O=C(O)[C@H]1CCCC[C@H]1C(=O)Nc1cc([N+](=O)[O-])ccc1F,7,0%,0.0,-27,-10,

# Returning to the listing with the 2 entries that preceded the break.
SMILES,Mtb bLac sens,Mtb H37Rv,RecA splice inh,YopH inh,Arbovirus inh,others
COC(=O)Cc1ccc(NC(=S)N2CCN(c3cccc(O)c3)CC2)cc1,-4,8%,-6.7,-39,4,
Nc1nc(N2CCN(C(=O)c3ccco3)CC2)nc2ccccc12,-5,-12%,-2.4,-3,-2,
O=C(CSc1nc2cc(Cl)ccc2s1)NC1CCCc2ccccc21 (stereo not drawn),4,9%,7.3,-15,8,
COC(=O)Nc1nnc(/C=C/c2ccccc2)s1,2,-4%,-7.0,-22,12,
O=C(COc1ccccc1)N1CCc2ccccc2C1,-6,-4%,3.3,-4,-9,
CCN(CC)S(=O)(=O)c1ccc(/C=C/C(=O)Nc2ccc(F)cc2F)cc1,5,2%,1.4,-22,-6,
O=C(O)CCn1c(=O)[nH]c2ccccc2c1=O,2,-4%,-2.3,-3,10,Arbovirus inh repeat=6
CCCCN(C)CCCNC(=O)CC1Oc2ccccc2NC1=O (stereo not drawn),6,-3%,.,-31,12,
CC(NCc1ccc2c(c1)OCO2)c1ccccc1 (stereo not drawn),-4,.,-0.9,.,.,
Cn1c(=O)cc(SCC(=O)NCCC2=CCCCC2)c2cc(Cl)ccc21,-12,-1%,-1.4,-27,10,
CC(C)[C@H](NC(=O)c1ccco1)C(=O)OCC(=O)N1CC(=O)Nc2ccccc21,-5,2%,-10,.,10,
Cc1cc(Cl)c(S(=O)(=O)NCc2cccnc2)cc1OCC(N)=O,-5,-6%,-0.3,-25,-4,
Cc1ccc(-n2ncc3c(=O)[nH]cnc32)c(C)c1,?,40%,-2.1,-28,9,
O=C(Oc1ccc2c(=O)c(Oc3ccc4ccccc4c3)coc2c1)c1cncc(Br)c1,5,5%,1.3,-18,27,
COC(=O)c1cc2ccsc2n1CC(=O)Nc1ccc(N(C)C)cc1,-5,-1%,3.8,-36,1,
COc1cccc(NC(=S)NCc2cccnc2)c1,-2,-5%,9.3,-10,-5,
CS(=O)(=O)N(CC(=O)Nc1ccccc1C(=O)NCc1ccco1)c1ccc2c(c1)OCCO2,?,1%,2.1,-36,-20,

# 4 structures already listed, arranged by length of the SMILES, low to high.
SMILES,Mtb bLac sens,Mtb H37Rv,RecA splice inh,YopH inh,Arbovirus inh,others
O=C(COc1ccccc1)N1CCc2ccccc2C1,-6,-4%,3.3,-4,-9,
CCCCN(C)CCCNC(=O)CC1Oc2ccccc2NC1=O (stereo not drawn),6,-3%,.,-31,12,
O=C(Oc1ccc2c(=O)c(Oc3ccc4ccccc4c3)coc2c1)c1cncc(Br)c1,5,5%,1.3,-18,27,
CC(C)[C@H](NC(=O)c1ccco1)C(=O)OCC(=O)N1CC(=O)Nc2ccccc21,-5,2%,-10,.,10,

# Other results
SMILES,Mtb bLac sens,Mtb H37Rv,RecA splice inh,YopH inh,Arbovirus inh,others
COc1ccccc1N1CCN(C(=O)CSc2nc3ccccc3o2)CC1,11,3%,4.1,12,10,
CCC(=O)C1=C(N2CCCC2)CC(C)(C)CC1=O,-1,0%,0.2,-13,7,
O=C(COC(=O)c1cc(-c2ccccc2Cl)nc2ccccc12)Nc1ncc(C(F)(F)F)cc1Cl,-1,-8%,-3.5,-30,-3,
COc1ccc(N(CC(=O)Nc2ccc(C)c(C)c2)S(=O)(=O)c2c(C)n[nH]c2C)cc1,-11,.,0.6,-2,-8,
CCN(CC)c1ccc(N=Cc2c(O)n(CCC3=CCCCC3)c(=O)[nH]c2=O)cc1,-7,-7%,-58,-14,-16,
O=C(NCc1ccc(Cl)cc1)C(=O)NCC1OCCN1S(=O)(=O)c1ccc2c(c1)OCCO2 (stereo not drawn),-1,36%,0.6,-6,-13,
O=C(Nc1ccccc1C(=O)O)c1cc(S(=O)(=O)NCc2ccccc2)ccc1Cl,0,.,-1.4,.,.,
O=C(COC(=O)Cc1ccsc1)NC1CCCCCC1,1,7%,1.3,-45,7,
COc1ccc(C(=O)CSc2nc3cccnc3n2C)cc1,-3,4%,-0.6,-15,-8,
O=C(N/N=C/c1cccnc1)c1cccc(Br)c1,1,.,-0.1,.,.,
COCCNc1nnc(SC(C)C(=O)Nc2ccc(-c3nc4ccc(C)cc4s3)cc2)s1 (stereo not drawn),13,6%,1.0,-8,-23,
Cc1ccc(-c2ccc(SCC(=O)N3CCN(c4ccccc4)CC3)nn2)cc1,-2,0%,-3.0,-12,-12,
CCCCC[C@H](O)/C=C/C1=C(CCCCCCC(=O)O)C(=O)CC1,5,-6%,5.2,-21,8,
Cc1cccc(C)c1NC(=O)C(=O)NCC1CCCN1S(=O)(=O)c1cccs1 (stereo not drawn),-8,.,2.6,.,.,
CC(C)C[C@@H]1NC(=O)[C@H](C(C)C)NC(=O)c2cc([N+](=O)[O-])cc(I)c2NCC[C@@H](C(N)=O)NC1=O,-5,9%,17,15,1,
COc1ccc(C2(c3ccc(OC)cc3)NC(=O)N(CC(=O)N(C)C)C2=O)cc1,-2,.,-2.1,.,.,
O=S(=O)(c1ccc(N2CCN(S(=O)(=O)c3ccc4c(c3)OCCO4)CC2)nc1)N1CCCC1,-5,1%,1.2,-46,-25,
CCCn1cc(CN2CCc3ccc(NC(=O)C4CCCO4)cc3C2)c(C)n1 (stereo not drawn),-5,.,0.1,.,.,
C=CCn1c(SCc2ccc(Cl)cc2)nc2c1c(=O)[nH]c(=O)n2C,-6,-1%,-1.6,-42,-1,
Cc1ccnc(NC(=S)NC(=O)/C=C/c2ccco2)c1,-10,1%,0.2,-18,-7,
Cc1nc2c(-c3ccc(F)cc3)cnn2c2c1CCC2,4,8%,-11,.,-6,
COc1ccc(NC(=O)c2c(N)no[n+]2[O-])cc1,93,?,0.3,.,-31,
COc1ccc(C(=O)Nc2ccnn2C2CCN(C(=O)c3cccnc3)CC2)cc1,-11,.,-1.0,.,.,
CCN(CC)c1ccc(S(=O)(=O)N2CCCCC2)cc1NC(=O)C1=COCCO1,-8,.,1.6,.,.,
Cn1nnnc1SCC(=O)Nc1ncc(Cl)cc1Cl,-5,.,-3.9,.,.,
O=C(CSc1cccc2cccnc12)OCC(=O)c1ccc(Br)cc1,-3,-7%,0.4,-27,-4,
Cn1c(OCc2ccc3c(c2)OCO3)nc2c1c(=O)n(Cc1cccc(Cl)c1)c(=O)n2C,6,1%,1.6,34,.,
COc1ccccc1OCCn1cc(/C=N/n2cnnc2)c2ccccc21,?,7%,2.3,-26,3,
CCOC(=O)c1nnn(-c2nonc2NC(C)=O)c1C,4,2%,0.4,8,9,
CC(C)N(Cc1nc(-c2ccc(Cl)cc2)no1)C(=O)/C=C/c1ccccc1,1,2%,16,-12,-10,
CCC(=O)Nc1cc(C(=O)O)ccc1Sc1ccc(Cl)cc1,2,4%,-3.4,.,22,
Cc1ccc2cc3cc(C(=O)N(CC(=O)NC4CCCC4)c4cccc(C)c4C)sc3nc2c1,9,23%,11,-49,-18,
COc1ccc2c(c1)[nH]c1c(=O)n(CCC3=CCCCC3)cnc12,1,-4%,2.7,5,-17,

# Screening results (PubChem BioAssay)

# The list is partial; count on the stated rates, not on these rows.
